HSP90 inh = inhibitors of HSP90 luciferase refolding in rabbit reticulocyte lysate | luciferase refolding luminescence, 3 h | inhibition, % at 5.6 µM | hit rate 0.91% among 290,000 | AID 1789;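 active means inhibition above the screen-wide mean plus 3 SD, computed separately per campaign, cut at about 16% in these data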;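 further: 0% = DMSO wells and 100% = 60 µM geldanamycin wells; inhibitors lower the luminescence because luciferase stays unfolded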
HSF1 activator = increases HSF-1 driven luciferase reporter signal; NIH3T3-HGL HSF-1 luciferase reporter, MG132, 8 h; 100% = twice DMSO control signal; activation, % at 9 µM; hit rate 1.7% among 300,000;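 active means mean replicate activation of at least 50% with a set share of replicates each reaching 50%; inconclusive means only one of those two conditions met; inactive means mean below 50% and too few replicates reaching it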;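 further: 0% = median of the neutral control wells and 100% = twice that signal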
Platelet DG rel = modulates dense granule release in human platelets; hit rate 0.22% among 300,000; inhibition, %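 (compounds screened at 7.5 µM in platelet-rich plasma)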; human platelet-rich plasma, SFLLRN dense granule ATP release, luminescence;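 active means mean replicate score, as percent of positive control, at or above 50; inconclusive means mean below 50 but at least one replicate at or above 50; inactive means mean and every replicate below 50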
HSF1 inh = HSF1 inhibition; activity change, negative = inhibition, % at 7.5 µM (by protocol); NIH3T3-HGL HSE-luciferase, MG132-induced, luminescence 8 h; stronger effect = lower value; hit rate 0.77% among 300,000;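 active means more than half of replicate wells show activity change below -50%, luminescence cut by over half; inconclusive means some wells, but at most half, below -50%; inactive means no replicate well below -50%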;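 further: luciferase reports HSF-1 transcriptional activity via heat shock element; 0% = median of DMSO wells and -100% = zero luminescence signal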
AI-2 QS mod = modulators of Vibrio harveyi AI-2 quorum sensing system; Vibrio harveyi JMH597 AI-2 luminescence/OD600 ratio, 9 h; stronger effect = lower value; strain lacks LuxN and CqsS sensors; 0 = neutral-control median; activity change, % at 7.5 µM; hit rate 0.4% among 300,000; in the data active means activity change below about -75%, passing the limit was not always enough; inconclusive means no clear call, values can overlap the other calls;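 further: luminescence divided by OD600 gain over 9 h not by final OD600 alone; inactives centre near 13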
KLF5 inh = kruppel-like factor 5 inhibition; inhibition, % at 5 µM; DLD-1 KLF5 promoter-luciferase reporter, luminescence; hit rate 0.23% among 290,000;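 active means inhibition above a per-plate limit of that plate's mean compound inhibition plus 3 SD, cut at about 60% in these data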;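 further: 0% = DMSO wells and 100% = LY294002 at 200 µM; higher means less KLF5 promoter-driven luciferase light; inactives centre near -14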
IEC-6 cytotox = counter-screen for KLF5 inhibitors: cytotoxicity in IEC-6 cells. IEC-6 cytotoxicity, luminescence viability. inhibition, % at 5 µM. hit rate 0.78% among 290,000. AID 1825; in the data active means inhibition above about 22%;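 further: 0% = plate median of test compound wells and 100% = cytotoxic reference compound wells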
HDAC3 inhib = human HDAC3 inhibition; O15379; recombinant HDAC3, fluorogenic peptide/trypsin coupled, fluorescence; inhibition, % at 8.3 µM; hit rate 0.15% among 320,000; AID 2718; in the data active means inhibition above about 26%, passing the limit was not always enough; inconclusive means no clear call, values can overlap the other calls
Target sequence (O15379 whole entry, looked up): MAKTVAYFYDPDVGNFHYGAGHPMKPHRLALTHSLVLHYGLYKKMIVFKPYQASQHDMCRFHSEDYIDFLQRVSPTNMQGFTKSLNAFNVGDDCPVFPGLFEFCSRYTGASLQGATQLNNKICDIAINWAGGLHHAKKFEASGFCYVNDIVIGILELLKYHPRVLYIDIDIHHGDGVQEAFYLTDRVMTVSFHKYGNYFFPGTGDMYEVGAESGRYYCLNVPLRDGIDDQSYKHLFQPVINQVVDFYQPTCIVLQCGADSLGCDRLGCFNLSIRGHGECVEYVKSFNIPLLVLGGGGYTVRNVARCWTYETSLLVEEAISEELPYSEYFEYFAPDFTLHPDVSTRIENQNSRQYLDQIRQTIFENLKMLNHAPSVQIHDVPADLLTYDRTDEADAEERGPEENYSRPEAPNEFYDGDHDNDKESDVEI
aSyn 5UTR inh = MLPCN primary screen, SNCA 5' untranslated region; alpha-synuclein 5'UTR reporter, inhibitor activity; hit rate 0.82% among 300,000; inhibition, % (tested at 7.5 µM); in the data active means inhibition above about 60%; inconclusive means no clear call, values can overlap the other calls;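 further: H4 neuroglioblastoma cells stably carrying SNCA 5'UTR luciferase fusion; 0% = DMSO wells and 100% = positive control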
An asterisk follows results filed as active; u = inconclusive; x = not tested or not shown; & = joins results of further samples. Some of the compounds tested. The share of hits here may be higher or lower than overall.

SMILES	HSP90 inh	HSF1 activator	Platelet DG rel	HSF1 inh	AI-2 QS mod	KLF5 inh	IEC-6 cytotox	HDAC3 inhib	aSyn 5UTR inh
COc1ccc(/C(O)=C2\C(=O)C(=O)N(CCN(C)C)C2c2cccc(OC)c2OC)cc1Cl (centres undefined)	-1	-9	-7	3	-9	3	-2	-2	-1
CCN(CC)CCN1C(=O)c2ccccc2NC1c1cc(OC)c(OC)c(OC)c1 (centres undefined)	-2	2	2	0	15	-3	5	-30	-6
C/C(=N\O)C1(C)N(O)C(C)(C)C(c2ccco2)=[N+]1[O-] (centres undefined)	5	7	-1	-1	25	-9	3	2	2
O=C(NCc1ccccn1)c1ccc(=O)oc1	-1	-16	5	-3	21	-23	9	1	15
Cc1sccc1C1C(C#N)=C(N)SC(N)=C1C#N	0	-4	-3	0	13	-19	1	3	-4
CCOC(=O)CNS(=O)(=O)c1cc(-c2nn(C)c(=O)c3ccccc23)ccc1C	0	-14	14	-3	-3	-3	-7	-6	8
N#CC1=C(C=Nc2ccccc2O)CCC1	2	7	0	-2	-1	-17	-4	2	-22
Cc1ccc(SCc2[nH]nc3c2C(c2ccc(C)o2)C(C#N)=C(N)O3)cc1 (centres undefined)	3	-74	14	-66*	14	8	1	4	21
CN(C)C(N)=NCCC[C@H](N)C(=O)O	x	-16	-2	-6	5	x	x	-10	19
CCOC(=O)c1[nH]c2ccccc2c1NC(=O)CCN1CCN(C(=O)OCC)CC1	-5	-8	-6	-5	18	-39	-4	0	18
C=CCOc1ccc(/C(O)=C2/C(=O)C(=O)N(CCCN3CCOCC3)C2c2ccc(OC)cc2)cc1 (centres undefined)	-3	2	x	-5	x	8	-5	0	6
CCCOc1ccc(/C(O)=C2/C(=O)C(=O)N(CCCn3ccnc3)C2c2cccs2)cc1 (centres undefined)	2	-22	-1	-8	19	-6	4	3	-32
COC(=O)C1=COC(C)C2CN3CCc4c([nH]c5ccccc45)C3CC12 (centres undefined)	2	-3	-1	-2	36	4	2	-3	-12
O=c1[nH]cnc2[nH]ncc12	8	11	2	-8	22	-2	10	3	-3
CN(CCO)CC(O)Cn1cnc2c1c(=O)n(C)c(=O)n2C (centres undefined) (tested in a mixture with another compound)	0	9	-1	1	54	20	-2	-6	12
Nc1[nH]nc2nc(NCc3ccccc3)c3c(c12)CCN(Cc1ccccc1)C3	-2	-16	-5	4	6	-30	-6	-3	44
CN(C)CCN(Cc1cccs1)c1ccccn1	8	-44	-6	-36	3	-7	8	2	-4
CC(=O)N[C@H]1C[C@@H]1c1ccccc1	11	4	4	-4	6	-25	2	-5	19
O=C(NCCCn1ccnc1)C(Cc1ccccc1)N1C(=O)c2ccccc2C1=O (centres undefined)	-1	-13	6	-2	32	-2	-1	3	12
COc1ccc2c(c1OC)C(=O)N1c3ccccc3C(=O)N(c3ccccc3F)C21 (centres undefined)	2	6	0	1	5	17	6	4	u
O=C(O)CSc1nc2ccccc2[nH]1	2	8	-6	0	26	-18	1	-3	-3
CCOc1nc(-c2ccncc2)nc2ccccc12	1	27	-1	1	30	-48	2	0	12
C[C@@H]1C(=O)O[C@@H]2CC34[C@H]5C[C@@H](C(C)(C)C)C36[C@H](OC(=O)[C@@H]6O)OC4(C(=O)O5)[C@@]12O (some centres undefined)	-2	-6	-10	-15	10	-18	-2	-13	-10
Cc1csc(NC(=O)CSc2nsc(SCC(=O)Nc3nc(C)cs3)c2C#N)n1	3	44	7	22	26	-18	8	10	-210
CC(=O)Nc1cccc(NC(=O)CSc2nc(C)c(C)c(C)c2C#N)c1	3	-2	8	-4	20	-13	6	2	50

Later entries:
SMILES	HSP90 inh	HSF1 activator	Platelet DG rel	HSF1 inh	AI-2 QS mod	KLF5 inh	IEC-6 cytotox	HDAC3 inhib	aSyn 5UTR inh
CCCCC(=O)O[C@H]1CC[C@H]2[C@@H]3CCc4cc(O)ccc4[C@H]3CC[C@]12C	0	8	-1	14	-4	-13	-4	4	0
CCCOC(=O)CSC1=C(C#N)C(c2ccccc2OCC)C(C#N)C(=O)N1 (centres undefined)	4	-8	-21	9	11	9	6	6	15
Nc1nonc1-c1noc(-c2ccccc2)n1	1	29	-4	8	39	-61	-3	1	-20
Cc1nc2sccn2c(=O)c1CCN1CCC(=C(c2ccccc2)c2ccc(F)cc2)CC1	0	-5	-1	-8	14	-9	-2	0	15
CCCCC(=O)C1CCN(Cc2ccccc2)CC1	2	-13	-10	-5	10	-14	1	-2	-20
O=C(OCC#CCSc1nnc(-c2ccccc2)o1)c1cccs1	4	11	7	4	4	-11	6	x	-26
Cc1ccc(Cl)c(Nc2ccccc2C(=O)O)c1Cl	-1	11	-4	-3	5	-10	2	x	-6
CC1(C(=O)CSc2nc3ccccc3s2)CCC(=O)O1 (centres undefined)	-1	4	-8	2	-39	-17	5	-3	-28
CSc1nnc(C)c(=O)[nH]1	-2	-3	0	-1	32	-26	-1	6	-2
Cc1ccc(N2C(=O)C3ON(c4ccccc4)C(c4ccncc4)C3C2=O)c(C)c1 (centres undefined)	-2	2	6	-3	22	-20	0	-2	-7
CC(C)Sc1nnc2n(CCc3ccccc3)c(=O)c3c4c(sc3n12)COC(C)(C)C4	-1	-3	2	4	31	-15	-1	-2	-3
O=C(O)c1cnn2c(C(F)(F)F)cc(-c3ccco3)nc12	7	-2	-6	0	34	27	-4	10	14
Nc1ncnc2nc(SCc3ccccc3)[nH]c12	-3	-1	0	-10	2	-10	-4	8	-47
COc1cc([C@@H]2[C@H]3CNCC=C3C(C#N)=C(N)C2(C#N)C#N)ccc1OC(C)C	3	-4	4	-6	7	20	5	5	14
CC(=O)N1CCN(c2ccc(OC[C@H]3CO[C@](Cn4ccnc4)(c4ccc(Cl)cc4Cl)O3)cc2)CC1	4&4	-7	-2	4	23	-3&-17	1&2	1	-15
NC(=O)OCC(COC(N)=O)c1ccccc1	-2	-10&-12	-4&-2	-4&-3	9&19	-6	-5	-6&-3	19&-4
Cc1cn([C@H]2C=C[C@@H](CO)O2)c(=O)[nH]c1=O	-1&4	4	-1	4	22	-4&-24	-1&3	-1&0	12
CN1CCC23c4ccccc4NC1C21CCN(C)C3Nc2ccccc21	x	-2	3	-2	15	x	x	9	-2
COc1ccc(-c2cc(=O)[nH]c(=O)[nH]2)cc1	2	-21	-4	0	2	-13	-6	7	-4
COC(=O)[C@@H]1CC[C@H](C)[C@@H](c2ccc(C)cc2)N1C(=O)c1ccc(/C=N/OC[C@@H](O)[C@H]2O[C@@H]3OC(C)(C)O[C@@H]3[C@H]2O)cc1	-3	2	-4	1	17	-18	-6	x	28
O=C(c1cncc(Br)c1)N1CCCc2ccccc21	1	-17	0	6	-4	-11	-4	6	19
CC(C)Oc1ccc(Cc2c(O)nc(NCCCN(C)C)[nH]c2=O)cc1	1	-2	-3	-6	15	0	-6	3	-1
OCCN1CCN(CCCN2c3ccccc3Sc3ccc(C(F)(F)F)cc32)CC1	2	-25	-5	3	13	-15	-3	4	-65
CC(C(=O)N1CCOCC1)N1C(=O)c2ccccc2C1=O (centres undefined)	-2	1	4	-7	30	16	2	2	-3
CCCOc1ccc(C2NC(=O)NC2=O)cc1 (centres undefined)	0	24	5	3	1	-10	6	2	-1

Following part:
SMILES	HSP90 inh	HSF1 activator	Platelet DG rel	HSF1 inh	AI-2 QS mod	KLF5 inh	IEC-6 cytotox	HDAC3 inhib	aSyn 5UTR inh
CCCOC(=O)C1[C@H]2C(=O)N(Cc3ccco3)C[C@]23C=C[C@H]1O3 (some centres undefined)	1	12	4	-5	9	-16	-2	3	16
c1coc(-c2nnc3sc(C4CCCCC4)nn23)c1	5	-3	8	0	-1	-2	4	1	32
Cc1occc(=O)c1OC(=O)Nc1ccccc1	-3	6	3	8	12	-27	0	-4	-44
CC1(C)Cc2c(sc3c2C2=NCCN2C=N3)CS1	6	-5	26	-9	11	-27	-1	-2	13
O=C(O)Cc1c[nH]c2ccc(O)cc12	x	-2	-4	1	18	x	x	-9	-30
O=C(O)c1c[nH]c2ccc(S(=O)(=O)N3CCOCC3)cc12	2	-39	0	-23	14	5	3	-11	9
CCCCOc1ccccc1C(=O)NCCCC(=O)O	2	-9	-3	0	25	-4	-4	1	2
NC(=O)c1cnccn1	0	0	-7	1	23	-18	0	x	5
CC(=Nc1cccc(O)c1)c1sc2ccccc2c1O	-7	13	2	7	5	-6	-4	15	-236
Nc1ncnc2c1nc(Sc1ccc(Cl)cc1)n2[C@@H]1O[C@@H]2COP(=O)(O)O[C@H]2[C@H]1O	x	-19	-3	-9	18	x	x	4	15
COCc1[nH]nc2c1C(c1sccc1C)C(C#N)=C(N)O2 (centres undefined)	-3	-12	x	-2	26	-3	1	2	9
COC(=O)C(NC(C)=O)(Nc1ccc(Br)cc1)C(=O)OC	-1	26	12	-5	30	-8	12	-2	11
O=C(O)CCc1nn2cc(-c3ccccc3)nc2[nH]c1=O	2	5	2	-7	12	-11	1	-16	-19
O=C(O)CCCCC1CCSS1 (centres undefined)	0	-17	1	-3	25	10	4	-3	4
CCC(=O)Nc1nc2ccccc2n1CCN(C)C	0	0	-1	-2	10	-15	1	3	3
Nc1[nH]c(=O)ncc1F	1&-1	11	0	-4	-10	-11&-12	-2&-4	-5	5
COc1ccc(N2C(=O)CC(N(Cc3ccc(S(N)(=O)=O)cc3)C(C)=O)C2=O)cc1 (centres undefined)	1	-14	1	-6	21	-14	2	1	8
CCc1cc(=O)oc2cc(C)c(CN3CCCCC3)c(O)c12	0	19	-2	1	22	-10	-4	3	28
O=C(C1CC1(c1ccccc1)c1ccccc1)N1CCOCC1 (centres undefined)	2	5	1	-4	15	-14	1	6	4
COc1ccccc1N1CCN(CCN(C(=O)C2CCCCC2)c2ccccn2)CC1	x	-6	-1	7	12	x	x	12	-1
CC(C)NCC(O)COc1ccc(COCCOC(C)C)cc1 (centres undefined)	x	-1	14	-1	11	x	x	2	-10
CCN(CC)CCN1C(=O)C(O)=C(C(C)=O)C1c1ccc(OC)c(OC)c1 (centres undefined)	-3	-15	-18	-6	15	-11	0	1	15
Cc1cc2c(C)nc(Cc3ccccc3)nc2o1	1	-1	-7	1	4	-18	8	-5	21
CCOc1ccc(C2=Nn3c(nnc3-c3cccnc3)SC2)cc1	0	-1	-4	-2	16	-19	-4	2	48
Cc1ccc(C(=O)C2=C(O)C(=O)N(CCN3CCOCC3)C2c2ccccn2)o1 (centres undefined)	-4	-46	7	-35	0	10	1	x	7

(listing goes on)
SMILES	HSP90 inh	HSF1 activator	Platelet DG rel	HSF1 inh	AI-2 QS mod	KLF5 inh	IEC-6 cytotox	HDAC3 inhib	aSyn 5UTR inh
COc1ccc2[nH]c(C)c(C(=O)CN3CCN(C(=O)c4ccco4)CC3)c2c1	-3	8	0	9	33	11	4	4	5
O=C(O)c1cc(=O)cc(C(=O)O)[nH]1	-2	-2	7	-10	15	-26	-8	2	-13
COc1cc(C(=O)Nc2nccs2)cc(OC)c1OC	1	-15	-7	-5	22	-26	3	-4	4
Cc1cc(NC(=O)CSc2nc(-c3cccnc3)ccc2C#N)no1	-2	8	0	0	14	-21	-2	-3	-43
COC(=O)/C=c1/s/c(=C(/C#N)C(=O)N2CCOCC2)n(-c2ccccc2)c1=O	10	0	0	-1	11	-12	-2	2	-24
Nc1nc2c(ncn2COC(CO)CO)c(=O)[nH]1	3	-14	1	-6	19	27	5	-2	15

Just Platelet DG rel and IEC-6 cytotox, for 2 of the compounds above:
| compound | Platelet DG rel | IEC-6 cytotox |
| --- | --- | --- |
| Nc1[nH]c(=O)ncc1F | 0 | -2&-4 |
| COc1ccc(N2C(=O)CC(N(Cc3ccc(S(N)(=O)=O)cc3)C(C)=O)C2=O)cc1 (centres undefined) | 1 | 2 |
